High-throughput results: PubChem BioAssay, National Center for Advancing Translational Sciences (NCATS)
RE007 growth inh = qHTS Assay for Inhibitors of the HIV-1 protein Vpr | S. pombe RE007 Vpr strain, BacTiter-Glo ATP luminescence, 24 h; control for the full effect not named in the record | Potency, µM (doses to about 92.2 µM), for inactives: at the top dose activity change, negative = less growth | 360,000 tested, 0.21% active | AID 651644, 2012; active = well fitted falling curve with a large enough effect; inconclusive = small, poorly fitted or top-dose-only effect; inactive = no such curve, though single readings can be large or run the other way;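 also: nearly all actives have a fitted effect of over 50% in size; the assay follows cell death caused by Vpr and the record does not say whether a fall means rescue or toxicity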
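Fission yeast RE007 carrying one integrated HIV-1 vpr copy, seeded at OD 0.01 in PMG+AL medium with 23 nL pinned compound. Grown 24 h at 30 degrees; viability read by BacTiter-Glo luminescence after 5 min.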
2A StopGo = High Throughput Screening for Foot and Mouth Disease Virus Antivirals | 410,000 tested, 1.2% active | human cells with a luciferase reporter of 2A StopGo recoding; control for the full effect not named in the record | Potency, µM (doses to about 57.9 µM), inactives show at the highest dose signal change, negative = less light; active = well fitted falling curve with a large enough effect; inconclusive = small, poorly fitted or top-dose-only effect; inactive = no such curve, though single readings can be large or run the other way; tested in HEK293T cells; also: nearly all actives have a fitted effect of over 45% in size; luciferase light after 4 h
* hit, by the source's call; ? = inconclusive; [ ] = dose if it differs, or a comment. % is scaled to controls: 0 for no effect and ±100 for the full control effect; potency is read from the fitted curve at half-maximal effect. Not all compounds are listed; count on the stated rates, not on these rows.

The first 2 entries as a preview:
SMILES | RE007 growth inh | 2A StopGo
Cn1c(=O)c2c(-c3ccccc3)n(-c3cc([N+](=O)[O-])ccc3N)cc2n(C)c1=O | 10% | -6%
O=C1NC[C@@H](CCCCN2C[C@H](Cc3ccc(O)cc3)N(Cc3ccccc3)C(=O)C2=O)N(Cc2ccccc2)C1=O | 2% | -14%

Main list, repeating the preview:
SMILES | RE007 growth inh | 2A StopGo
Cn1c(=O)c2c(-c3ccccc3)n(-c3cc([N+](=O)[O-])ccc3N)cc2n(C)c1=O | 10% | -6%
O=C1NC[C@@H](CCCCN2C[C@H](Cc3ccc(O)cc3)N(Cc3ccccc3)C(=O)C2=O)N(Cc2ccccc2)C1=O | 2% | -14%
Cc1ccc(S(=O)(=O)N(C)c2ccc(OCC(=O)Nc3cc(C(=O)O)ccc3Cl)cc2)cc1 | -9% | -12%
Cc1cc(S(=O)(=O)NC[C@H]2O[C@@H](n3ccc(N)nc3=O)[C@H](O)[C@@H]2O)c(C)s1 | -15% | -1%
COc1ccc([N+](=O)[O-])cc1NC(=O)COC(=O)C12CC3CC(CC(O)(C3)C1)C2 | 0% | -27%
CCCNC(=O)C1(C)CCN(C(=O)c2cccc(C(F)(F)F)c2)C1 (stereo not drawn) | 0%[18.4 µM] | -7%
Cc1c(C(=O)NCc2ccc(C#N)cc2)sc(=O)n1Cc1ccccn1 | 5%[18.4 µM] | -13%
C[C@H]1CN([C@@H](C)CO)S(=O)(=O)c2ccc(Br)cc2O[C@H]1CN(C)S(=O)(=O)c1ccccc1F | -12% | -10%
CCCc1c(Cc2cccc(F)c2)ncn1Cc1cccc(-c2ccccc2)c1 | -14% | -71%
Cc1cc(C(=O)N2CCC2(C)C(=O)NCCC#N)nn1C (stereo not drawn) | 9% | -11%
CCOC(=O)c1cc(C)nnc1C(=O)OCC | 13% | -4%
Nc1ncnc2c1ccn2[C@@H]1O[C@H](CO)[C@@H](O)[C@H]1O | -2% | ?
COc1ccc(NC(=O)c2cc(-c3cc(F)ccc3OC)n[nH]2)c(OC)c1 | ? | -9%
Cn1ccn(CCCCCCn2ccn(C)c2=S)c1=S | -8% | -10%
CC(=O)Nc1cccc(-c2ccnc3c2CC(C(=O)Nc2cccc(Oc4ccccc4)c2)O3)c1 (stereo not drawn) | 2% | ?
CC(C)C[C@@H](CO)NC(=O)CC[C@H](NC(=O)OC(C)(C)C)C(=O)N(Cc1ccccc1)Cc1ccccc1 | 11% | -9%
O=C(NCCN1CCC(n2c(=O)[nH]c3ccccc32)CC1)c1cccc(F)c1 | 4% | -27%
CCN1C[C@@H]2[C@@H]3C(=O)N(Cc4ccccc4)C(=O)[C@@H]3[C@](C)(C1=O)N2C(=O)c1ccc(C(F)(F)F)cc1 | 9% | -19%
Cc1onc(-c2ccccc2Cl)c1C(=O)O/N=C(\N)c1cccc([N+](=O)[O-])c1 | 11% | -20%
CCc1nc2ccc(C(=O)NCc3ccccc3OC)cn2c1N(C)Cc1ccc(OC)cc1 | -19% | -14%
COc1cc(C(O)c2nc(-c3ccccc3OC)cs2)ccc1F (stereo not drawn) | 10% | 0%
CC(C)COC(=O)N(C)C[C@H]1OCc2cn(nn2)CCCC(=O)N([C@@H](C)CO)C[C@@H]1C | 8% | -6%
COCCNC(=O)C1(C)CCCN(Cc2cn(C)c3ccccc23)C1 (stereo not drawn) | -25% | -4%
O=C1NC[C@H](CCCCN2C[C@H](Cc3ccc(O)cc3)N(CCc3ccc(O)cc3)C(=O)C2=O)N(Cc2ccccc2)C1=O | 5% | -20%
CCCCN(C=O)c1c(CC)nc2c(OCc3ccc(S(C)(=O)=O)cc3)cccn12 | -2% | ?
COc1ccc(N2CCN(CC(=O)Nc3c(C)cccc3C)CC2)cc1 | 9% | -22%
CCOc1ccc(S(=O)(=O)Nc2cccc(C(=O)N3CCN(c4ccccn4)CC3)c2)cc1 | -3% | -27%
Nc1ccccc1C(=O)NN=Cc1cccnc1 | 1%[18.4 µM] | 6%
CCCNC(=O)c1cc(C2CCCCN2C(=O)c2ccc3ccccc3c2)on1 (stereo not drawn) | 10% | -7%
CC(C)C[C@@H](CN1CCC[C@@H]1CN1C(=S)NC[C@@H]1Cc1ccc(O)cc1)N1C[C@H](Cc2ccc(O)cc2)N(CC2CCCCCC2)C1=S | 7% | ?
CC(C)c1nc(CNC(=O)CC2C(=O)NCCN2Cc2ccccc2)cs1 (stereo not drawn) | 8% | -10%
COc1cc(CN2C(=O)C(C)ON=C2c2ncccc2C)cc(OC)c1 (stereo not drawn) | 8%[18.4 µM] | -17%
C[C@@H]1CN([C@H](C)CO)S(=O)(=O)c2ccc(C#Cc3ccccc3)cc2O[C@H]1CN(C)C(=O)Nc1ccc2c(c1)OCO2 | 21% | -20%
Cc1ccc(NC(=O)CN(C)C(=O)COc2ccc(Br)cc2)cc1 | 16% | -11%
Cc1cc(CNC(=O)C2(C(F)(F)F)CC(CCCO)CCCO2)nn1C (stereo not drawn) | 1% | -13%
O=C(NCc1cccs1)c1ccc2sc(COCCO)nc2c1 | -4%[18.4 µM] | 10%
CN1CCN(C(=O)c2ccc(S(=O)(=O)N(C)c3ccccc3)cc2)CC1 | 4% | -26%
CCCCCCCCC(=O)O | -14% | -18%
Cc1cc(S(=O)(=O)Nc2ncnc3sccc23)ccc1F | -3% | 42%[activator]
CCCc1ccc(S(=O)(=O)N2CCN(C(=O)c3cc(C)on3)CC2)cc1 | 10% | ?

Quoted from the listing:
For 2A StopGo, COCCNC(=O)C1(C)CCCN(Cc2cn(C)c3ccccc23)C1 (stereo not drawn) shows -4%
For 2A StopGo, CCOc1ccc(S(=O)(=O)Nc2cccc(C(=O)N3CCN(c4ccccn4)CC3)c2)cc1 shows -27%

(continued)
SMILES | RE007 growth inh | 2A StopGo
Cc1cccc(C)c1NC(=O)C1c2ccccc2OCC(=O)N1Cc1ccc2c(c1)OCO2 (stereo not drawn) | 7% | ?
CSc1ccc(-c2cccc3nncn23)cc1 | 3%[18.4 µM] | -4%
Cc1cnc(C(=O)Nc2c(-c3ccccc3)[nH][nH]c2=O)cn1 | 2% | -5%
COc1ccccc1CCC(=O)Nc1ccc2c(c1)c(=O)n(C)n2C | 12% | 0%
Cc1ccc(-n2c(=S)[nH]c3ccccc3c2=O)cc1F | 6% | 128%[activator]
CCOC(=O)c1ccc(NC(=O)c2nc[nH]c2C(=O)NC[C@H](C)O)cc1 | -28% | -12%
CCC[C@H]1CN(c2ccccc2)C(=O)[C@@H]1CC(=O)Nc1ccccc1 | -9% | 17%
COc1ccc(NC(=O)C2(C)Cc3c(-c4ccc(C(N)=O)cc4)ccnc3O2)cn1 (stereo not drawn) | 56% | -5%
COC(=O)C1=C(c2cc3ccccc3o2)C[C@@H]2CC[C@H]1N2C(=O)NCCCOC(C)C | 5% | -22%
O=C1NCCN(CC2CCN(CCC3CCCC3)CC2)C1=O | -10% | -13%
COc1cccc(-c2ncn(CCc3ccccc3OC)c2C(C)C)c1 | -15% | 32µM*
COc1ccc(S(=O)(=O)N2CCCCC2)cc1NC(=O)C1CC1(Cl)Cl (stereo not drawn) | -1% | 37%[activator]
Cc1ccc(C(=O)Nc2nc(-c3ccc4c(c3)OCCO4)cs2)o1 | -21% | -29%
CCOC(=O)c1c(-c2ccc(OC)cc2)oc2c1C(OC(C)=O)CCC2 (stereo not drawn) | 1% | 18%
COc1ccccc1C(=O)NCC(=O)OCc1nnc(-c2ccccc2)o1 | -18% | 42%[activator]
CCc1nc2c(OCc3ccc(F)cc3)cccn2c1N(C)C(=O)COc1ccccc1 | -19%[18.4 µM] | 32µM*
COc1ccc(CCNC(=O)COc2cc(C)cc3oc(=O)c(C)c(C)c23)cc1OC | -2% | -13%
Nc1ccc2c(Cl)cc(Cl)cc2c1 | ? | -7%
Cc1cc(F)ccc1C(O)c1ncc(-c2ccc3ccccc3c2)[nH]1 (stereo not drawn) | 11%[18.4 µM] | 30%
CC(C)N1CCN(c2ccc(OC[C@H]3CO[C@](Cn4cncn4)(c4ccc(Cl)cc4Cl)O3)cc2)CC1 | -9%[18.4 µM] | -22%
CC(=O)Nc1ccc(NC(=O)C2Cc3c(-c4ccc5c(c4)OCO5)ccnc3O2)cc1 (stereo not drawn) | -13% | -19%
O=C(Nc1ccc(F)c(Cl)c1)Nc1nnc([C@H]2C[C@H](O)[C@@H](CO)O2)s1 | -8%[18.4 µM] | 28%
Cc1cccc(C)c1-n1nnnc1C(c1ccccc1)N1CCC2(CC1)C(=O)NCN2c1ccccc1 (stereo not drawn) | -7% | -17%
CN(C)CCNC(=O)C1Cc2c(-c3ccccc3Oc3ccccc3)ccnc2O1 (stereo not drawn) | -12% | -12%
Cc1onc(-c2ccccc2)c1C(=O)OCC(=O)N1CCCCC1 | -1% | -10%
CCc1nc2ccc(C(=O)NCCCn3ccnc3)cn2c1N(C)Cc1ccc(OC)cc1 | -15% | -26%
CS(=O)(=O)Nc1cccc(-c2cc(NC=O)c3ncc(-c4ccc(F)c(Cl)c4)n3c2)c1 | 6% | -18%
COC(C[C@H]1O[C@H]1C(=O)[C@@H](C)OCc1ccccc1)OC | -6% | -21%
OCC[C@@H]1C[C@H](O)[C@@H](O)[C@]2(OCc3ccc(CO)cc32)O1 | 6% | -2%
CN1CCC(N2CCN(C3CN(Cc4cn(Cc5ccc(C(F)(F)F)cc5)nn4)S(=O)(=O)C3)CC2)CC1 (stereo not drawn) | -13% | -18%
COC(=O)[C@H]1C[C@H](OC(=O)NC2CCCC2)[C@@]2(O)CN(S(=O)(=O)c3ccc(C)cc3)CC2[C@H]1C(=O)OC (stereo partly drawn) | 1% | -8%
COc1ccc(CNC(=O)C[C@@H]2CC[C@@H](NS(=O)(=O)c3cccc(OC)c3)[C@@H](CO)O2)cc1 | 13% | -18%
CCCCOC(=O)c1ccc(NC(=O)COC(=O)C2CC2C)cc1 (stereo not drawn) | -5% | 14%
O=C1C(=O)c2cccnc2-c2ncccc21 | ? | 4µM*
CN(C)CCN(C(=O)c1ccc2ccccc2c1)c1nc2cc3c(cc2s1)OCO3 | 2% | -19%
COc1ccc(C(C(=O)Nc2c(C)cccc2C)N2CCN(c3ccc(C)cc3)CC2)cc1 (stereo not drawn) | 7% | -15%
CC(=NNC(=S)N1CC2CCC(CC2)C1)c1ccccn1 | -9% | -4%
CCN(CC)c1ccc(C(=C2C=CC(=[N+](CC)CC)C=C2)c2ccc(S(=O)(=O)O)cc2S(=O)(=O)[O-])cc1 | ? | ?

19 entries already listed, arranged by length of the SMILES, lowest first:
SMILES | RE007 growth inh | 2A StopGo
Nc1ccc2c(Cl)cc(Cl)cc2c1 | ? | -7%
O=C1C(=O)c2cccnc2-c2ncccc21 | ? | 4µM*
CC(=NNC(=S)N1CC2CCC(CC2)C1)c1ccccn1 | -9% | -4%
CCCCOC(=O)c1ccc(NC(=O)COC(=O)C2CC2C)cc1 (stereo not drawn) | -5% | 14%
COc1ccccc1C(=O)NCC(=O)OCc1nnc(-c2ccccc2)o1 | -18% | 42%[activator]
Cc1cc(F)ccc1C(O)c1ncc(-c2ccc3ccccc3c2)[nH]1 (stereo not drawn) | 11%[18.4 µM] | 30%
COC(C[C@H]1O[C@H]1C(=O)[C@@H](C)OCc1ccccc1)OC | -6% | -21%
CN(C)CCNC(=O)C1Cc2c(-c3ccccc3Oc3ccccc3)ccnc2O1 (stereo not drawn) | -12% | -12%
CN(C)CCN(C(=O)c1ccc2ccccc2c1)c1nc2cc3c(cc2s1)OCO3 | 2% | -19%
CCc1nc2ccc(C(=O)NCCCn3ccnc3)cn2c1N(C)Cc1ccc(OC)cc1 | -15% | -26%
COc1ccc(CCNC(=O)COc2cc(C)cc3oc(=O)c(C)c(C)c23)cc1OC | -2% | -13%
OCC[C@@H]1C[C@H](O)[C@@H](O)[C@]2(OCc3ccc(CO)cc32)O1 | 6% | -2%
COc1ccc(C(C(=O)Nc2c(C)cccc2C)N2CCN(c3ccc(C)cc3)CC2)cc1 (stereo not drawn) | 7% | -15%
O=C(Nc1ccc(F)c(Cl)c1)Nc1nnc([C@H]2C[C@H](O)[C@@H](CO)O2)s1 | -8%[18.4 µM] | 28%
Cc1cccc(C)c1-n1nnnc1C(c1ccccc1)N1CCC2(CC1)C(=O)NCN2c1ccccc1 (stereo not drawn) | -7% | -17%
CN1CCC(N2CCN(C3CN(Cc4cn(Cc5ccc(C(F)(F)F)cc5)nn4)S(=O)(=O)C3)CC2)CC1 (stereo not drawn) | -13% | -18%
COc1ccc(CNC(=O)C[C@@H]2CC[C@@H](NS(=O)(=O)c3cccc(OC)c3)[C@@H](CO)O2)cc1 | 13% | -18%
CCN(CC)c1ccc(C(=C2C=CC(=[N+](CC)CC)C=C2)c2ccc(S(=O)(=O)O)cc2S(=O)(=O)[O-])cc1 | ? | ?
COC(=O)[C@H]1C[C@H](OC(=O)NC2CCCC2)[C@@]2(O)CN(S(=O)(=O)c3ccc(C)cc3)CC2[C@H]1C(=O)OC (stereo partly drawn) | 1% | -8%
